Compound activity from PubChem.
Mtb H37Rv – M. tuberculosis H37Rv growth inhibitors, H37Rv strain (AID 1626); M. tuberculosis H37Rv growth inhibition; higher % means a stronger effect; inhibition, % at 10 µM, or IC50 in µM where a hit was titrated; 220,000 tested, 0.95% active;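 active = confirmed in a dose series; inconclusive = inhibition above 80% but not taken into the dose series; inactive = below 80% or under 30% at every dose of the series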;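 note: bacteria incubated seven days before Alamar blue readout; 0% = bacteria only wells and 100% = bacteria with antibiotic wells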
Arbovirus inh – blocks arbovirus infection; arbovirus infection cell-based antiviral screen; inhibition, % at 10 µM; 200,000 tested, 0.37% active; AID 1251;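 active = inhibition from about 30%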;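 note: bluetongue infection of BSR cells; cell survival read as ATP light after 72 h; 0% = infected wells without compound and 100% = uninfected wells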
RecA intein inh – inhibitors of M. tuberculosis RecA intein splicing | inhibition, %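 (about 9 µM by stock and volumes)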 | AID 2221 | cell-free RecA intein splicing, fluorescence | 290,000 tested, 0.75% active | P9WHJ3; in the data active = inhibition above about 30%; inconclusive = no clear call, values can overlap the other calls;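 note: 0% = vehicle wells and 100% = reference inhibitor control wells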
Target sequence (P9WHJ3 whole entry, looked up): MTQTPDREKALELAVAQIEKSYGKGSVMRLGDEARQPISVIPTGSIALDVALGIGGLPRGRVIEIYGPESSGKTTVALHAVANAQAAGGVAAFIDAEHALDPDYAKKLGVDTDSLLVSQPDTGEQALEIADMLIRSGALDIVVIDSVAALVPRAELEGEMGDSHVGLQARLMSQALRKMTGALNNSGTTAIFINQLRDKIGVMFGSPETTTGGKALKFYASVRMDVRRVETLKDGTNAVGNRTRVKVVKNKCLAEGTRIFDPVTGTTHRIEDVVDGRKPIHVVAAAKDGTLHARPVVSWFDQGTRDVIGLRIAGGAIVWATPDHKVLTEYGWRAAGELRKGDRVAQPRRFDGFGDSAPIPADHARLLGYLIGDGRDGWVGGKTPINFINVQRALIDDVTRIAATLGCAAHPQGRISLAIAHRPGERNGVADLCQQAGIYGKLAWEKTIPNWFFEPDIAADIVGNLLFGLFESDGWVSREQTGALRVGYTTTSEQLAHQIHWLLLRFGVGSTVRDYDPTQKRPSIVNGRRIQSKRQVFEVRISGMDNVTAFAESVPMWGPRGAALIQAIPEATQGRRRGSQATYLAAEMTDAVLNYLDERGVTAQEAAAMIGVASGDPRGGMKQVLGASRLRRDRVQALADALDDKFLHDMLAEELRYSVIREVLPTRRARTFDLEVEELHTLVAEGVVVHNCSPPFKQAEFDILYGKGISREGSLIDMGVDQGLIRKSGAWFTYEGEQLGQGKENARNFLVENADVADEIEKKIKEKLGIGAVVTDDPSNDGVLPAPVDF
Mtb betalactam – beta-lactam sensitization of Mtb H37Rv. 330,000 tested, 0.27% active. inhibition, % at 25 µM. M. tuberculosis H37Rv growth with meropenem, percent inhibition; hits of this screen are not shown here;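 active = about 74% or more and at least 40 points above the plate without the antibiotic, then above 30% in a dose series; inconclusive = first-round hits that could not be retested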;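 note: growth measured after seven days incubation then overnight dye step; 0% = bacteria only wells and 100% = bacteria with antibiotic; twin plates without the antibiotic show which effects depend on it; some results filed as inactive read as strong as hits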
YopH PTP inh – YopH (Yersinia) phosphatase inhibition | 140,000 tested, 0.16% active | inhibition, %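 (about 10 µM by stock and volumes)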 | fluorescence Ex485/Em525;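 active = inhibition of 50% or more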;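 note: controls were vehicle for no effect and minimum signal wells for full effect; inactives centre near -20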
Arbovirus inh repeat – second read-out of Arbovirus inh, no call of its own (marks repeat the call); inhibition, %; measured here: 10K subset replicate screen; many hits read low in the repeat;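 first of two repeat runs on a subset; 0% = infected and 100% = uninfected wells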
Starred values were filed as active, the others as inactive; ? = inconclusive; . = not tested or not shown; & = joins results of further samples.

SMILES	Mtb H37Rv	Arbovirus inh	RecA intein inh	Mtb betalactam	YopH PTP inh	others
Cc1ccc2c3c([nH]c2c1)C(=O)CC(C)(C)S3	2%	0	-2.1	-7	.
Nc1c(-c2ccc(F)cc2)cnc2ncnn12	-2%	12	-0.3	10	-43
Cn1nc(N)c2c1N=P(N1CCOCC1)(N1CCOCC1)N=C2c1ccccc1	-3%	6	-0.6	9	-14
Cc1onc(-c2c(Cl)cccc2Cl)c1C(=O)n1nnc2ccccc21	-8%	9	37*	16	-13
C/C(=N\NC(=O)c1ccc(O)cc1O)c1cccnc1	.	.	-1.4	-3	.
CC(C)C(=O)N1CCN(c2nc(-c3ccccc3)c3c(c2C#N)CC(C)(C)OC3)CC1	2%	-17	4.4	13	9
COc1ccc(CN2CCNC(=O)C2CC(=O)NCCN2CCCCC2=O)c(F)c1 (configuration not stated)	.	.	-5.3	7	.
CCOC(=O)c1cc(NC(=O)c2cc(C)on2)cc(C(=O)OCC)c1	5%	-3	-2.0	59	-21
CCN1C(=O)OC2(CCCCC2)C1(C)O (configuration not stated)	-2%	2	.	-10	-28
CCN1CCN(c2ccc(S(=O)(=O)N3CCCCC3)cc2NC(=O)c2cccc(C)c2[N+](=O)[O-])CC1	.	.	-2.1	-6	.
CCCCNC(=O)CCCCC(=O)N/N=C/c1ccccc1Cl	-2%	-6	-2.4	7	-22
CCOc1ccc(NC(=O)CSc2nnc(CCNC(=O)c3ccc(OC)cc3)n2CC)cc1	.	10	-1.4	-7	-24
NNc1nc2ccc(Cl)cc2s1	53%	-20	1.2	1	-13
O=C(NCC1CC1)Nc1ccc(Cl)cc1	.	.	1.3	-4	.
CC(C)NCCCCOc1ccc(Br)cc1Cl	0%	-33	-0.8	5	.
Cc1ccc2nc(C)cc(C(=O)OCC(=O)Nc3cccnc3Cl)c2c1	0%	2	-1.4	-5	.
CCOc1ccc(C(=O)NCC(=O)NCCOc2ccc(C)cc2)cc1	.	.	2.1	?	.
CC(=O)Nc1c2c(nn1-c1ccccc1)CS(=O)C2 (configuration not stated)	.	.	2.6	5	.
CCOC(=O)C1(CCOc2ccccc2)CCN(Cc2ccc(OC)c(O)c2)CC1	.	.	4.0	6	.
COc1ccc(C(CNC(=O)c2ccc(S(=O)(=O)N3CCCC3)cc2)N2CCOCC2)cc1 (configuration not stated)	6%	.	-6.8	-5	.

Retrieved by compound from the entries so far:
SMILES	Mtb H37Rv	Arbovirus inh	RecA intein inh	Mtb betalactam	YopH PTP inh	others
CCOc1ccc(C(=O)NCC(=O)NCCOc2ccc(C)cc2)cc1	.	.	2.1	?	.
C/C(=N\NC(=O)c1ccc(O)cc1O)c1cccnc1	.	.	-1.4	-3	.
COc1ccc(CN2CCNC(=O)C2CC(=O)NCCN2CCCCC2=O)c(F)c1 (configuration not stated)	.	.	-5.3	7	.
Nc1c(-c2ccc(F)cc2)cnc2ncnn12	-2%	12	-0.3	10	-43
O=C(NCC1CC1)Nc1ccc(Cl)cc1	.	.	1.3	-4	.

Later entries
SMILES	Mtb H37Rv	Arbovirus inh	RecA intein inh	Mtb betalactam	YopH PTP inh	others
COc1cc(/C=C2\CCCc3c2nc2ccccc2c3C(=O)O)cc(Br)c1O	.	.	-4.6	3	.
CN(C)CCNC(C(=O)Nc1cc(Cl)cc(Cl)c1)c1ccccc1 (configuration not stated)	4%	-31	1.8	7	.
O=C(Nc1cc(-c2ccccc2)[nH]n1)c1ccccc1F	-1%	.	1.5	4	.
COc1ccc(CN2CCN(Cc3ccccc3C(F)(F)F)CC2)c(OC)c1	.	.	2.2	-1	.
C(=N\Nc1ncnc2sc3c(c12)CCC3)/c1cccs1	?	-31	-3.8	100	-32
O=C(CN1CCOCC1)Nc1ccc([N+](=O)[O-])cc1Br	8%	1	-0.7	4	.
Cc1nc(SCCO)c([N+](=O)[O-])[nH]1	-5%	.	-0.1	-8	.
C=CCn1c(SCC(=O)c2ccc(Cl)s2)nc2ccccc2c1=O	-3%	-2	1.0	1	-27
CC(=O)c1ccc(NC(=O)CSc2nc(N)c3cc4c(nc3n2)CCCC4)cc1	4%	-7	-0.4	0	-27
CCOC(=O)c1ccc[n+](CC(=O)c2ccc(OC)cc2)c1	3%	6	-6.0	-1	-25
CN=C1CC(C)(C)CC(=O)/C1=C(/O)CCCN1C(=O)c2ccccc2C1=O	2%	4	4.4	-1	.
CC1(C)CC2CC(C)(CN2C(=O)COC(=O)c2ccc(Cl)cc2N)C1 (configuration not stated)	-10%	-3	8.4	4	-34
O=C(O)c1cc(-c2ccc(/C=N/Nc3ccc([N+](=O)[O-])cn3)o2)ccc1Cl	7%	31*	.	.	.
O=C(CSc1n[nH]c(=O)n1-c1cccnc1)Nc1ccccc1	.	.	-3.1	-14	.
O=[N+]([O-])c1ccc(N2CCN(S(=O)(=O)c3ccccc3)CC2)cc1NCC1CCCO1 (configuration not stated)	3%	0	0.9	-3	-19
Cc1c(-c2nnnn2-c2ccc(F)cc2)cnc2cc3c(cc12)OCO3	-8%	-2	-5.2	3	7
COc1ccc(NC(=O)CN(C)S(=O)(=O)c2cnc[nH]2)cc1	.	.	-1.7	2	.
CC(C)=NOC(=O)c1ccc(-c2ccccc2)cc1	7%	2	3.5	9	-27
Cc1cc(C)n(-c2nc3ccccc3c(=O)n2OC2CCCCC2)n1	-5%	9	2.9	-4	-34
Nc1ncnc(N2CCOCC2)c1N	-8%	3	.	-3	-9
Cc1nnsc1C(=O)N1CCC(C(=O)c2ccccc2)CC1	9%	.	-1.1	-1	.
CC(C)c1ccc(C(=O)OCC(=O)NC2CCCC2)cc1	.	.	2.8	0	.
OCC[C@@H]1C[C@H](O)[C@@H](O)[C@@]2(CCCc3ccccc3O2)O1	.	.	-1.0	-3	.
NS(=O)(=O)c1ccc(NC(=S)NC(=O)c2ccco2)cc1	0%&8%	-7	-5.8	?	-33
CC(Oc1ccccc1)C(=O)NC1=NCCS1 (configuration not stated)	1%	6	-2.3	-1	.
CC(C)(C)OC(=O)N1CCC(c2c(C(=O)N3CCN(C(=O)c4ccco4)CC3)cnn2-c2ccc(F)cc2F)CC1	.	.	3.3	-1	.
O=C(CSc1ncccn1)N/N=C/c1ccc2c(c1)OCO2	.	.	-4.5	-9	.
O=C(NCCC(=O)N1CCC2(CC1)NCCc1[nH]cnc12)c1cccc(C(F)(F)F)c1	.	.	0.5	2	.
CCOc1ccc(-n2c(SCC(=O)NC3CCS(=O)(=O)C3)nnc2-c2cccnc2)cc1 (configuration not stated)	-2%	4	0.4	0	.
Cc1cc(Nc2c(C)n(C)n(-c3ccccc3)c2=O)n2c(nc3ccccc32)c1C#N	.	-5	-1.9	9	-17
O=c1cc(O)c2c(=O)n(-c3ccccc3)c3c(c2o1)CCCCC3	-6%	-4	0.3	-2	-28
CCCN(CCC)CC(O)Cn1cc(/C=C/C(=O)c2cccs2)c2ccccc21 (configuration not stated)	?	-29	-0.2	100	-22
O=C(CN1CCN(Cc2ccccc2)CC1)N/N=C/C=C/c1ccccc1[N+](=O)[O-]	.	0	-2.5	2	-19
O=C(O)c1ccc(CNCc2cccc(Cl)c2Cl)cc1	7%	6	1.4	-9	-2
Nn1c(SCC(=O)NC(=O)NC2CCCC2)nnc1-c1ccccc1F	0%	1	0.2	3	-25
Cc1cccc(Cn2c(N3CCN(CCO)CC3)nc3c2c(=O)[nH]c(=O)n3C)c1	.	.	-1.1	0	.
COc1cccc(C2c3[nH]c4ccccc4c3CCN2Cc2cnn(C)c2)c1 (configuration not stated)	-2%	.	-13	-2	.
O=C(O)c1cccc(N/N=C/c2cn(-c3ccccc3)nc2-c2cccs2)c1	6%	-5	7.2	13	.
COc1ccc(C)cc1NC(=O)CN1CCN(S(=O)(=O)c2ccc(C(C)C)cc2)CC1	7%	1	7.6	81	-7
CC(C)(C)n1nc2c(c1NC(=O)c1ccco1)CS(=O)C2 (configuration not stated)	-2%	-3	-3.2	-10	11

A draw from above in order of molecular weight, ascending:
SMILES	Mtb H37Rv	Arbovirus inh	RecA intein inh	Mtb betalactam	YopH PTP inh	others
Cc1nc(SCCO)c([N+](=O)[O-])[nH]1	-5%	.	-0.1	-8	.
O=C(O)c1cc(-c2ccc(/C=N/Nc3ccc([N+](=O)[O-])cn3)o2)ccc1Cl	7%	31*	.	.	.
O=[N+]([O-])c1ccc(N2CCN(S(=O)(=O)c3ccccc3)CC2)cc1NCC1CCCO1 (configuration not stated)	3%	0	0.9	-3	-19

Further compounds.
SMILES	Mtb H37Rv	Arbovirus inh	RecA intein inh	Mtb betalactam	YopH PTP inh	others
COc1cccc(NS(=O)(=O)CC23CCC(CC2=O)C3(C)C)c1 (configuration not stated)	8%	4	0.2	-6	-24
COc1ccc(C(=O)CSc2nnc(-c3ccccc3)o2)cc1	1%	-8	-2.1	8	-33	Arbovirus inh repeat=-1
COc1ccccc1-c1nc(SCC(=O)NCc2ccco2)c2c(=O)n(C)c(=O)n(C)c2n1	.	.	-2.5	2	.
O=C(CNC(=O)c1cccc(Br)c1)N/N=C/c1ccc2c(c1)OCO2	.	.	1.6	2	.
Nc1nonc1-n1nnc(C(=O)N/N=C/c2ccc(Cl)cc2Cl)c1CN1CCCCC1	.	.	-1.6	-1	.
CC(Sc1nnc2c(n1)C1CCC2(C)C1(C)C)C(=O)Nc1ccccc1 (configuration not stated)	4%	-3	-2.6	-5	-10
CCSc1nnc([C@H](Cc2ccccc2)NC(=O)OC(C)(C)C)o1	15%	1	-0.6	-2	15
Cc1ccc2c(c1)=C/C(=C\c1c(O)[nH]c(=S)[nH]c1=O)C(=O)N=2	8%	6	-11	-9	-31
CC(C)(C)C(=O)Nc1cc2c3c(c1)CCN3C(=O)CC2	.	.	-1.2	0	.
CCSc1nnc(-c2cccc(S(=O)(=O)N(CC)CC)c2)n1Cc1ccccc1	-3%	1	0.6	-5	-23
CCN(CC)c1ccc(C=N/C(C#N)=C(\N)C#N)cc1	7%	-8	-1.5	.	-46
O=C(NCc1ccccc1)c1nc[nH]c1C(=O)NCc1ccccc1	-4%	-3	0.1	65	.
CCC(CC)C(=O)Nc1nnc(S(=O)(=O)Nc2ccccc2C)s1	.	.	-0.3	0	.
COc1ccc(-c2noc(CN(C)S(=O)(=O)c3ccc(Cl)cc3)n2)cc1OC	2%	0	1.7	-2	-13
CCOc1cc2c(cc1OCC)C(c1ccc(F)cc1)NCC2 (configuration not stated)	.	.	1.7	-4	.
Nc1ccccc1C(=O)Nc1cccc(C(=O)O)c1	-9%	7	-2.3	11	-14
O=C1CCC(/C=C/c2ccccc2)=NN1Cc1ccc(F)cc1	1%	0	6.0	0	.
Cc1cc(C(=O)N/N=C/c2ccccn2)n[nH]1	2%	5	-7.8	1	.
CCCC(=O)c1cc(-c2nc3ccccc3n2C)n(C)c1	7%	-4	.	8	-11
COc1ccccc1C(=O)Nc1nnc(S(=O)(=O)N2CCCCC2)s1	.	.	-0.9	5	.
Cc1ccc(N(CC(O)Cn2c3ccccc3c3ccccc32)S(C)(=O)=O)c(C)c1 (configuration not stated)	3%	-8	16	-1	-23
CCc1nccn1C(=O)c1cnn2c(C(F)F)cc(-c3ccccc3)nc12	-6%	-2	-2.7	-1	-23
CCOC(=O)C1=C(C)Nc2sc(C(=O)c3ccc(F)cc3)c(N)c2C1c1ccc(C(=O)OC)cc1 (configuration not stated)	76%	-4	-32	82	-1
COc1cc(C(=S)N2CCOCC2)cc(OC)c1OC(=O)Cc1ccccc1	5%	-2	-4.8	4	.
CC1CCC(NS(=O)(=O)c2ccc3c(c2)CC(=O)N3)CC1 (configuration not stated)	.	.	2.5	1	.
COc1ccccc1N1CCN(C(c2ccc(C)cc2)c2nnnn2C(C)C)CC1 (configuration not stated)	-10%	-1	3.4	-4	3
CC(=O)c1ccc(NC(=O)c2ccc3c(=O)n4c(nc3c2)CCCCC4)cc1	.	.	-0.4	56	.
COC(CN1CCc2c(C)nc3c(C#N)cnn3c21)OC	4%	5	-0.7	-4	.
Cc1ccccc1NC(=O)COC(=O)CCSc1ccccc1	1%	5	1.3	-2	.
CCOC(=O)CSc1nnc(CNC(=O)c2cccs2)n1Cc1ccccc1	-15%	-2	-2.6	2	-34
COc1cc(/C=C2\SC(=O)N(CCNC(=O)c3sc4cc(F)ccc4c3Cl)C2=O)cc(OC)c1OC	0%	-16	-1.6	-10	.
O=C1CC(N2CCc3ccccc32)C(=O)N1c1ccccc1 (configuration not stated)	-6%	.	-0.9	1	.
COc1cc2c(C#N)c(N3CCN(c4ccccc4OC)CC3)nc(N)c2c(N)n1	5%	-27	2.0	91	-17
CCn1c(P(C)(=O)O)nc2cc(NC(=O)c3ccccc3Cl)ccc21	6%	6	-3.2	-7	.

The list is partial; rates above refer to the full screens.
